2A StopGo – High Throughput Screening for Foot and Mouth Disease Virus Antivirals | AID 1159524, 2015 | hit rate 1.2% among 410,000 | human cells with a luciferase reporter of 2A StopGo recoding; control for the full effect not named in the record | Potency, µM (top dose mostly 57.9 µM), without a hit: at the top dose signal change, negative = less light; active = well fitted falling curve with a large enough effect; inconclusive = small, poorly fitted or top-dose-only effect; inactive = no such curve, though single readings can be large or run the other way; tested in HEK293T cells; also: % is scaled to controls: 0 for no effect and ±100 for the full control effect; nearly all actives have a fitted effect of over 45% in size; luciferase light after 4 h
SARS PLpro yeast – qHTS of Yeast-based Assay for SARS-CoV PLP; S. cerevisiae expressing SARS-CoV PLpro, growth rescue; control for the full effect not named in the record; Potency, µM (top dose mostly 32.9 µM), for inactives: at the highest dose activity, positive = growth rescue; hit rate 0.19% among 330,000; AID 485353, 2010; also: 0% is about no effect; nearly all actives have a fitted effect of over 55% in size; growth read by luminescence after 48 h
RE007 growth inh – qHTS Assay for Inhibitors of the HIV-1 protein Vpr; S. pombe RE007 Vpr strain, BacTiter-Glo ATP luminescence, 24 h; control for the full effect not named in the record; Potency, µM (top dose mostly 92.2 µM), for inactives: at the top dose activity change, negative = less growth; hit rate 0.21% among 360,000; active = well fitted falling curve with a large enough effect; inconclusive = small, poorly fitted or top-dose-only effect; inactive = no such curve, though single readings can be large or run the other way;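 also: % is scaled to controls: 0 for no effect and ±100 for the full control effect; nearly all actives have a fitted effect of over 50% in size; the assay follows cell death caused by Vpr and the record does not say whether a fall means rescue or toxicity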
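Fission yeast strain RE007, carrying one chromosomally integrated HIV-1 vpr copy, was seeded at OD 0.01 in PMG+AL medium with 23 nL pinned compound. After 24 h at 30 °C and 99% humidity, viability was read by BacTiter-Glo luminescence.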
Cruzain noTriton – qHTS Assay for Promiscuous and Specific Inhibitors of Cruzain (without detergent) | purified cruzain, Z-FR-AMC fluorescence, no detergent | Potency, µM, for the others: max response, negative = inhibition, usual class: inhibitors | hit rate 2.3% among 200,000 | AID 1476, 2009; active = well fitted curve in the direction sought with a large enough effect; inconclusive = small, poorly fitted or top-dose-only effect, or another doubt; inactive = no such curve, though single readings can be large; an effect the other way counts as inactive or inconclusive;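 also: plate controls were enzyme without inhibitor for no effect and buffer without enzyme for full effect; nearly all actives have a fitted effect of over 40% in size; top concentration of the series not given in the record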
Target sequence (P25779 123-467 limits assumed): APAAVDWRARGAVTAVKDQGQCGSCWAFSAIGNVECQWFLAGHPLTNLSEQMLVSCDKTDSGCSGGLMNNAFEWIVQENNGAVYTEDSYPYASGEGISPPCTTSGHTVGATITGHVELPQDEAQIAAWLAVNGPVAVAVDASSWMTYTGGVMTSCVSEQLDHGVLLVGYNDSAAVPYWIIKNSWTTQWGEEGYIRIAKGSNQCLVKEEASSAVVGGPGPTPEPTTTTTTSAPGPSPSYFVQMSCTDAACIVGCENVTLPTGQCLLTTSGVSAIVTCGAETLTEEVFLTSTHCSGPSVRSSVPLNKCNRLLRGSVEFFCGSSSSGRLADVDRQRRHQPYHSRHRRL
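Purified cruzain at 1.5 nM, pre-incubated 15 min with compound at room temperature in 100 mM sodium acetate pH 5.5, 5 mM DTT, 0.00005% Triton X-100. Reaction started with 2 uM Z-FR-AMC; AMC fluorescence increase over 60 s gives rate.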
LASV entry inh – qHTS for Inhibitors of binding or entry into cells for Lassa Virus; Potency, µM (series often up to 37.9 µM), for the others: at the highest dose activity change, negative = inhibition, most hits filed as inhibitors; hit rate 1.2% among 300,000; AID 540256, 2011; Lassa virus pseudotype entry inhibition, cell reporter; control for the full effect not named in the record; active means well fitted inhibition curve with a large enough effect; inconclusive means small, poorly fitted or top-dose-only effect, or effect the other way; inactive means flat fitted curve, though single readings scatter; tested in HEK293 cells; also: % is scaled to controls: 0 for no effect and ±100 for the full control effect; nearly all actives have a fitted effect of over 50% in size; luciferase read-out
Cruzain inh Det – qHTS Assay for Promiscuous and Specific Inhibitors of Cruzain (with detergent); Cruzipain (Trypanosoma cruzi), P25779; purified cruzain, Z-FR-AMC fluorescence, 0.01% Triton; Potency, µM, without a hit: max response, negative = inhibition, usual class: inhibitors; hit rate 0.43% among 200,000; AID 1478, 2009; active = well fitted curve in the direction sought with a large enough effect; inconclusive = small, poorly fitted or top-dose-only effect, or another doubt; inactive = no such curve, though single readings can be large; an effect the other way counts as inactive or inconclusive;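 also: plate controls were neutral wells for no effect and buffer without enzyme for full effect; nearly all actives have a fitted effect of over 40% in size; top concentration of the series not given in the record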
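Cruzain (1.5 nM) preincubated 15 min at RT with compound in 100 mM sodium acetate pH 5.5, 5 mM DTT, 0.01% Triton X-100. Reaction started with 2 uM Z-FR-AMC; AMC fluorescence (ex 360/em 450 nm) change over 60 s gave rate.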
NS1 function inh – qHTS Assay for Inhibitors of Influenza NS1 Protein Function. S. cerevisiae slowed by influenza A NS1, growth recovery by OD600. Potency, µM (top dose mostly 46.1 µM), inactives show top-dose activity, positive = more growth. hit rate 0.4% among 270,000; also: actives are rising curves; nearly all actives have a fitted effect of over 50% in size
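Recovery from NS1-induced slow growth read by OD600 in budding yeast switched to galactose assay medium (pH 6.0, -URA) at 1:100 dilution. Compound 23 nl per well; the matching strain lacking NS1 serves as control.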
Marburg entry inh – qHTS for inhibitors of binding or entry into cells for Marburg Virus; Marburg virus pseudotyped entry inhibition, cell reporter; control for the full effect not named in the record; about a third of the inactives were read at about 46 µM; hit rate 1.8% among 300,000; Potency, µM (titrated, usually from 37.8 µM), without a hit: top-dose activity change, negative = inhibition, most hits filed as inhibitors; AID 540276, 2011; active = well fitted inhibition curve with a large enough effect; inconclusive = small, poorly fitted or top-dose-only effect, or effect the other way; inactive = flat fitted curve, though single readings scatter; tested in HEK293 cells; about a fifth of its hits are not listed in these tables; also: % is scaled to controls: 0 for no effect and ±100 for the full control effect; luciferase read-out
* = called active by the depositor; ? = inconclusive; · = no result given; & = joins results of further samples; [ ] = another dose, or the depositor's remark. Unless noted, calls follow the shape of the dose curve; as a rule, active means well fitted rising curve with a large enough effect; inconclusive means small, poorly fitted or top-dose-only effect; inactive means no such curve, though single readings can be large or run the other way. Potency is read from the fitted curve at half-maximal effect.

SMILES	2A StopGo	SARS PLpro yeast	RE007 growth inh	Cruzain noTriton	LASV entry inh	Cruzain inh Det	NS1 function inh	Marburg entry inh
CC(C)Oc1ccc(S(=O)(=O)N2CCOCC2)cc1NC(=O)CN1C(=O)NC2(CCCC2)C1=O	-14%	-2%	6%	·	8%	·	6%	-18%
Cc1ccc(NC(=O)O/N=C/c2cccc([N+](=O)[O-])c2)cc1	-5%	0%	-14%	·	?	·	9%	?
CCCCCCCOc1ccc(OC(=O)c2cccnc2)cc1	·	7%	-15%	-2%	-30%	1.3%	11%	-23%
O=C(NN1CCOCC1)c1cccc(COc2cccc(Br)c2)c1	14%	-4%	26%	·	24%	·	-4%	10%[46.1 µM]
O=C(CNC(=O)N1CC(=O)Nc2ccccc21)NCCc1c[nH]c2ccccc12	-6%	-4%	-6%	·	·	·	9%	·
Cc1ccc(OCC(=O)NNC(=O)C(C)Sc2ncnc3sc(C)c(C)c23)cc1 (stereo not drawn)	-12%	5%	-4%	18%	-1%	2.6%	13%	18%
COc1cccc(-c2csc(N3CCN(C(=S)Nc4ccccc4C)CC3)n2)c1	-21%	-1%	1%	·	·	·	22%	·
N#CC1=C2SCN(Cc3ccco3)CN2C(=O)CC1c1ccccc1F (stereo not drawn)	-10%	-4%	-21%	-20%	-7%	-3.0%	10%	-8%
O=C(Nc1ccc2[nH]ccc2c1)c1ccc(F)cc1	-56%	-3%	?	·	·	·	2%	·
CC(C)(C)NCc1cc(Br)ccc1OC1CCCC1	-23%	0%	-7%	·	-26%	·	-4%	23µM*
O=C(CCNC(=O)c1ccccc1Cl)Nc1ccc(S(=O)(=O)Nc2nccs2)cc1	2%	-2%	-7%	·	12%	·	·	-11%
Cc1[nH]n(-c2cccc(Cl)c2)c(=O)c1/C=N/n1c(C)nc2ccccc2c1=O	-14%	-14%	-7%	?	-1%	10%	-4%	22%
Cc1ccc(CN2CCSc3ccc(C(=O)Nc4ccc(F)cc4F)cc32)cc1	23%	·	·	?	?	-11%	·	?
CC(C)(O)C#Cc1ccc(CN2CCC(n3nccc3NC(=O)C3CC3)CC2)cc1	-3%	-2%	9%	·	?	·	4%	-4%[46.1 µM]
COCCn1c(=O)[nH]c2cc(C(=O)NCCN3CCN(c4ccccc4F)CC3)ccc2c1=O	?	-1%	1%	3%	-10%	-3.0%	-4%	1%&1%
CNC(C(=O)c1ccccc1)C(OC)c1ccc(C)cc1 (stereo not drawn)	-18%	?	3%	-10%	23%	-0.3%	2%	1%
Cc1onc(-c2c(F)cccc2Cl)c1C(=O)Nc1nc2ccccc2[nH]1	-1%	19%	4%	-5%	?	8.0%	-4%	-18%[46.1 µM]
COC(=O)c1cn(Cc2ccccn2)c(=O)c2ccccc12	-5%	0%	6%	·	-10%[46.1 µM]	·	1%	0%[46.1 µM]
O=C(COc1ccccc1)NCCc1cn2ccsc2n1	-12%	4%	-1%	-4%	·	-4.1%	-7%	·
CS(=O)(=O)Nc1ccc(C2=NN(S(C)(=O)=O)C(c3ccccc3)C2)cc1 (stereo not drawn)	58%[activator]	-10%	-4%	-14%	7%	-1.2%	-4%	1%
CN1CCN(C(=O)c2ccc(C3SCC(=O)N3Cc3ccco3)cc2)CC1 (stereo not drawn)	-13%	-2%	0%	-5%	-8%	3.3%	-2%	-29%[46.1 µM]
CCOCCOC(=O)c1ccc(NC(=O)/C=C/c2ccc(OC)c(OC)c2)cc1	20µM*	·	·	?	-2%[46.1 µM]	-13%	·	·
COc1cc(C(=S)N2CCN(C)CC2)ccc1OCC(=O)NCc1ccccc1	7%	3%	-16%	·	?	·	·	8%[46.1 µM]
Cn1c(=O)c2c(nc(N3CCCCCC3)n2CC(O)COc2ccccc2)n(C)c1=O (stereo not drawn)	?	7%	7%	?	?	0.5%	-33%	9%
COCc1cc(C)nc(OCC(=O)N/N=C/c2cccc(OC)c2)c1C#N	-16%	2%	5%	-4%	10%	-1.1%	-7%	6%[46.1 µM]
CCN1C(=O)N/C(=C/c2ccc(Sc3ccc(C)cc3)o2)C1=O	?	-10%	-19%	-9%	7%	-3.7%	-11%	5%
COc1ccc2c(c1)C1C=CCC1C(c1cc3c(cc1Br)OCO3)N2 (stereo not drawn)	-19%	-12%	-5%	25µM*	?	-3.9%	14%	?
Cc1[nH]ccc(=O)c1OCc1c(Cl)cccc1Cl	-5%	-4%	7%	-9%	1%	1.5%	2%	7%
CCCn1c(=O)sc2cc(NC(=O)c3ccc(OC)c(Br)c3)ccc21	-25%	·	·	-5%	?	-5.8%	·	?
O=C(NCc1ccc2c(c1)OCO2)c1nc(S(=O)(=O)Cc2ccccc2)ncc1Cl	16µM*	-2%	1%	·	?	·	-8%	?
Cc1ccnc(NC(=O)C2CCCN(S(=O)(=O)c3ccc4[nH]c(=O)ccc4c3)C2)c1 (stereo not drawn)	-13%	-4%	6%	·	·	·	-8%	·
CCc1ccc(C2CC(c3ccc(C)cc3)Nc3nc(N)nn32)cc1 (stereo not drawn)	-18%	-2%	1%	-23%	7%	0.8%	5%	3%
Cc1ccc(-c2cc3nc(-c4ccccc4)cc(N)n3n2)cc1	3%	-2%	-2%	25µM*	12%	7.4%	18%	-17%[46.1 µM]
N#Cc1c(Nc2ccccc2)[n+]([O-])c2ccc(Cl)cc2[n+]1[O-]	-13%	·	?	·	3.2µM*	·	·	?
COc1cccc(-c2noc(-c3cc(C(C)C)[nH]n3)n2)c1OC	21%	·	·	2%	11%[46.1 µM]	-1.7%	·	·
O=C(Cc1cccc(C(F)(F)F)c1)N1CCCC1	2%	0%	8%	·	-12%	·	8%	-1%[46.1 µM]
C=CCN1C=CC(=CC=C(C#N)C#N)C=C1	0%	0%	1%	·	4%	·	1%	-4%
CC(C)(C)c1ccc(C(=O)N/C(=C/c2cccs2)C(=O)NCc2ccco2)cc1	-17%	-15%	3%	6%	?	-10%	-14%	?
CCOC(=O)c1c(C)c(C(=O)NCCN2CCOCC2)c(C)n1CC	9%	2%	-3%	-2%	12%	0.6%	-6%	-3%
Cc1cc(-c2ccccc2)nc(N/N=C/c2ccco2)n1	25%	3%	-2%	-2%	-9%	-4.8%	-10%	0%
CC(C)C(NC(=O)OCc1ccccc1)C(=O)NC1CCCCC1 (stereo not drawn)	-11%	-7%	-1%	-29%	0%	-11%	17%	-7%
COc1ccc(-c2cc(C(=O)Nc3c(Cl)cccc3Cl)no2)cc1OC	-1%	·	·	5%	4%[46.1 µM]	-9.9%	·	7%[46.1 µM]
CC(=O)Nc1ccccc1-c1nc2ccccc2nc1OCC(=O)c1ccc(Cl)cc1	-12%	2%	16%	29%	24%	-2.7%	-1%	12%
COc1cccc(CNC(=O)c2cc(S(=O)(=O)N3CCCC3)cn2C)c1	-2%	0%	8%	·	·	·	3%	·
O=C(c1ccc(Br)cc1)N1CCN(Cc2ccccc2)CC1	?	0%	-16%	·	-27%	·	-13%	-2%
O=C(Nc1ccc2c(c1)OCO2)Nc1ccc2c(c1)OCO2	81%[activator]	0%	3%	·	·	·	7%	·
CC(NC(=O)C(=O)N1CCOCC1)C(c1cccs1)N1CCN(c2ccccc2)CC1 (stereo not drawn)	13%	-3%	6%	·	-3%[46.1 µM]	·	-6%	-2%[46.1 µM]
COCCN(CC(=O)NC1CCCCC1)C(=O)CCCC(=O)Nc1ccccn1	-4%	15%	-3%	·	·	·	0%	·
NS(=O)(=O)c1ccc(NC(=O)COC(=O)CCCN2C(=O)c3cccc4cccc(c34)C2=O)cc1	0%	1%	-17%	·	-19%	·	·	3%
CCOC(=O)N1CCN(Cc2cc(=O)oc3cc4c(cc23)CCC4)CC1	-10%	-11%	37%	-8%	3%	-5.8%	-82%	-2%

The list goes on:
SMILES	2A StopGo	SARS PLpro yeast	RE007 growth inh	Cruzain noTriton	LASV entry inh	Cruzain inh Det	NS1 function inh	Marburg entry inh
COc1ccc(CN(C(C)=O)c2ccccc2C(=O)O)cc1	-11%	0%	-4%	·	·	·	2%	·
O=C(c1ccc(Br)s1)N1CCN(S(=O)(=O)c2ccccc2)CC1	?	-5%	-24%	·	-4%	·	5%	?
O=C(O)C1CCN(S(=O)(=O)c2cccs2)CC1	9%	1%	-10%	·	-3%	·	6%	2%[46.1 µM]
CC(=O)Nc1ccc(OCC(=O)NC(C)C(C)C)cc1 (stereo not drawn)	-3%	5%	2%	-4%	16%	-2.5%	10%	?
COc1ccc(OC)c(-c2cc(C(=O)N3CCN(c4ncccn4)CC3)c3ccccc3n2)c1	-27%	-1%	13%	?	?	-5.0%	-9%	?
COc1cc(C2c3c(oc4ccc(Cl)cc4c3=O)C(=O)N2Cc2ccco2)cc(OC)c1OC (stereo not drawn)	·	12%	·	-15%	·	8.0%	?	-4%
COc1ccc(CNC(=O)C2CCCN(C(=O)c3cnn(-c4ccc(F)cc4)c3-n3cccc3)C2)cc1 (stereo not drawn)	?	·	·	?	17%[46.1 µM]	-2.8%	·	·
CCc1ccc(N2CCN(C(=O)c3ccc4c(c3)OCO4)CC2)cc1	1%	-7%	-9%	·	11%	·	-3%	0%
O=C(CCc1nnc(C2CCCCC2)o1)NCc1ccc(F)c(F)c1	-9%	-2%	5%	·	2%	·	4%	6%
COc1ccccc1CNC(=O)CNCC1CCCO1 (stereo not drawn)	1%	6%	2%	0%	1%	8.8%	-4%	-1%
COc1ccc(C2NC(=O)N(C)C3=C2C(=O)N(c2cccc(C(=O)O)c2)C3)cc1 (stereo not drawn)	-6%	·	·	-8%	18%[46.1 µM]	-4.5%	·	?

Screening data from PubChem.
